# Vaccinia inh: blocks a specific stage of Vaccinia orthopoxvirus infection. activity change (mCherry), % (no concentration beside the values). 89,000 compounds, 0.01% hits. Vaccinia-infected cells, mCherry/Venus stage reporter fluorescence; active compounds read low; some inactives read as strong as hits. AID 1053133;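 active = mCherry past -33% and 40 or more points under the early reporter, replicates agreeing; inconclusive = past -33% without that gap or agreement; tested in A549 cells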;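 note: scaled between vehicle wells and reference inhibitor wells; 23 nL library stock went into each well; one replicate is shown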
# Vaccinia inh Venus: further read-out of Vaccinia inh, marked with its call; activity change (Venus), %; measured here: Venus reporter, other viral stage;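 negative = less Venus signal; first of two replicates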
# * marks the source's active call; other numbers are inactive results; ? = inconclusive; . = not tested or not shown.
canonical_smiles,Vaccinia inh Venus,Vaccinia inh
CO[C@H]1CN(C)C(=O)c2cc(NC(=O)c3ccc4c(c3)OCO4)ccc2OC[C@H](C)N(CC2CC2)C[C@H]1C,-7,-11
O=C(Nc1ccc(-c2ccccc2)cc1)[C@H]1[C@H](CO)[C@H]2Cn3c(cccc3=O)[C@H]2N1CC1CCOCC1,1,1
O=C(C[C@H]1C=C[C@H](NC(=O)c2ccccc2)[C@@H](CO)O1)NCc1ccc(Oc2ccccc2)cc1,-15,-17
COc1ccccc1C#Cc1ccc2c(c1)O[C@@H](CN(C)C(C)=O)[C@@H](C)CN([C@@H](C)CO)S2(=O)=O,-11,-2
COc1cccc(S(=O)(=O)N2C[C@H](O)COC[C@@H]3O[C@@H](CC(=O)N4CCOCC4)CC[C@H]32)c1,1,6
CCCNC(=O)C[C@H]1CC[C@@H]2[C@H](COC[C@H](O)CN2C(=O)CC)O1,0,6
COCC(=O)Nc1ccc2c(c1)OC[C@H](C)N(C)C[C@H](C)[C@H](OC)CN(C)C2=O,-5,-2
NCC[C@@H]1CC[C@@H](NC(=O)C2CCC2)[C@@H](CO)O1,15,14
O=C(N[C@@H]1C=C[C@@H](CC(=O)N2CCc3ccccc3C2)O[C@H]1CO)C1CCOCC1,2,7
C[C@@H]1CN([C@@H](C)CO)C(=O)c2cc(NC(=O)Cc3cn(C)c4ccccc34)ccc2O[C@H]1CN(C)Cc1ccccc1,-4,-9
C[C@H]1CN([C@@H](C)CO)C(=O)c2cc(NC(=O)c3ccncc3)ccc2O[C@H]1CN(C)Cc1ccc(Cl)c(Cl)c1,-13,-15
C[C@@H]1CN([C@@H](C)CO)C(=O)CCCn2nncc2CO[C@@H]1CN(C)C(=O)Nc1ccccc1,3,2
O=C(C[C@@H]1CC[C@@H](NC(=O)Cc2ccccn2)[C@@H](CO)O1)NCCc1ccncc1,4,0
O=C(C[C@@H]1C[C@@H]2c3cc(NC(=O)C4CCC4)ccc3O[C@@H]2[C@H](CO)O1)NCc1ccncc1,4,12
CCCNC(=O)Nc1ccc2c(c1)OC[C@H](C)N(Cc1ccncc1)C[C@H](C)[C@@H](OC)CN(C)C2=O,3,5
C[C@@H]1CCCCO[C@H](CN(C)Cc2ccc3c(c2)OCO3)[C@H](C)CN([C@@H](C)CO)C(=O)c2cc(NC(=O)NC3CCCCC3)ccc2O1,.,?
CO[C@H]1CN(C)C(=O)c2ccc(NC(=O)c3cnccn3)cc2OC[C@@H](C)N(CC2CC2)C[C@@H]1C,-6,0
CNC[C@@H]1Oc2c(NS(=O)(=O)c3cn(C)cn3)cccc2C(=O)N([C@@H](C)CO)C[C@@H]1C,11,15
C[C@@H]1CN([C@H](C)CO)C(=O)c2cccc(NC(=O)Nc3ccc4c(c3)OCO4)c2O[C@H]1CN(C)S(=O)(=O)c1cccs1,14,40
COc1ccc(-c2ccccc2[C@@H]2[C@@H](C#N)N(C(=O)NC(C)C)[C@H]2CO)cc1,5,7
Cc1ccc(S(=O)(=O)N(C)C[C@@H]2Oc3ccc(NC(=O)C4CC4)cc3C(=O)N([C@@H](C)CO)C[C@@H]2C)cc1,-2,-4
C[C@H]1CN([C@@H](C)CO)C(=O)Cc2cc(NC(=O)c3ccncc3)ccc2O[C@@H]1CN(C)C(=O)NC1CCCCC1,-5,-11
C[C@H]1CN([C@@H](C)CO)C(=O)c2cccc(NS(=O)(=O)c3ccc(Cl)cc3)c2O[C@@H]1CN(C)Cc1ccccc1,1,5
COc1ccc(S(=O)(=O)Nc2ccc3c(c2)C(=O)N([C@H](C)CO)C[C@H](C)[C@@H](CN(C)S(=O)(=O)c2c(C)noc2C)OCCCC[C@@H](C)O3)cc1,1,0
CC(C)CC#Cc1ccc([C@@H]2[C@H](CO)N3C(=O)CN(C(=O)c4cccc(F)c4)C[C@@H]23)cc1,.,?
CN1[C@H](C(=O)NC2CCC2)[C@@H](CO)[C@@H]2Cn3c(ccc(/C=C/c4ccccc4)c3=O)[C@@H]21,10,10
COc1cccc(CNC(=O)C[C@@H]2C=C[C@@H](NS(=O)(=O)c3ccccc3OC)[C@H](CO)O2)c1,4,9
CCCC(=O)N1CCC2(CC1)CN(C(=O)Cc1ccccn1)[C@H](CO)c1[nH]c3cc(OC)ccc3c12,3,24
COC(=O)C[C@H]1C[C@H]2c3cc(N(C)C)ccc3O[C@H]2[C@H](CO)O1,14,12
C[C@@H]1CN([C@@H](C)CO)C(=O)c2cc(NC(=O)CCCN(C)C)ccc2O[C@@H]1CN(C)S(=O)(=O)c1ccc(F)cc1,-1,3

# Quoted at random: 7 entries already listed, in no set order.
canonical_smiles,Vaccinia inh Venus,Vaccinia inh
NCC[C@@H]1CC[C@@H](NC(=O)C2CCC2)[C@@H](CO)O1,15,14
COc1ccccc1C#Cc1ccc2c(c1)O[C@@H](CN(C)C(C)=O)[C@@H](C)CN([C@@H](C)CO)S2(=O)=O,-11,-2
C[C@H]1CN([C@@H](C)CO)C(=O)Cc2cc(NC(=O)c3ccncc3)ccc2O[C@@H]1CN(C)C(=O)NC1CCCCC1,-5,-11
CCCNC(=O)Nc1ccc2c(c1)OC[C@H](C)N(Cc1ccncc1)C[C@H](C)[C@@H](OC)CN(C)C2=O,3,5
CCCNC(=O)C[C@H]1CC[C@@H]2[C@H](COC[C@H](O)CN2C(=O)CC)O1,0,6
O=C(N[C@@H]1C=C[C@@H](CC(=O)N2CCc3ccccc3C2)O[C@H]1CO)C1CCOCC1,2,7
C[C@@H]1CN([C@@H](C)CO)C(=O)CCCn2nncc2CO[C@@H]1CN(C)C(=O)Nc1ccccc1,3,2

# Next section
canonical_smiles,Vaccinia inh Venus,Vaccinia inh
C[C@@H]1CN([C@H](C)CO)C(=O)Cc2cc(NS(C)(=O)=O)ccc2O[C@@H]1CN(C)CC1CCCCC1,-4,-2
C[C@H]1CN([C@@H](C)CO)C(=O)Cc2cc(NC(=O)C3CCCCC3)ccc2O[C@@H]1CN(C)S(=O)(=O)c1cn(C)cn1,11,10
C[C@@H]1CN([C@H](C)CO)C(=O)c2cc(Br)cnc2O[C@H]1CN(C)C(=O)C1CCOCC1,11,18
O=C(C1=C[C@H](c2ccc(C(F)(F)F)cc2)C[C@H](OCc2ccc(CO)cc2)O1)N1CCOCC1,-2,4
CCC(=O)N1C[C@H](C)[C@@H](OC)CN(C)C(=O)c2ccc(NC(=O)c3ccc(F)cc3)cc2OC[C@H]1C,9,9
C[C@H]1CN([C@@H](C)CO)C(=O)c2cccc(NC(=O)C3CC3)c2O[C@@H]1CN(C)Cc1ccc(Oc2ccccc2)cc1,.,?
CNC[C@H]1Oc2ccc(N)cc2CC(=O)N([C@@H](C)CO)C[C@H]1C,-1,8
O=C(c1ccncc1)N1C[C@@H]2[C@H](c3ccccc31)[C@@H](CO)N2C(=O)c1ccccc1F,2,-2
CO[C@@H]1CN(C)C(=O)c2ccc(NC(=O)c3ccno3)cc2OC[C@H](C)NC[C@@H]1C,27,4
C[C@@H]1CCCCO[C@H](CN(C)Cc2ccc3c(c2)OCO3)[C@@H](C)CN([C@H](C)CO)C(=O)c2cc(NC(=O)Nc3ccccc3)ccc2O1,-17,-7
CO[C@@H]1CN(C)C(=O)c2cc(NC(=O)c3ccccc3F)ccc2OC[C@@H](C)N(C(=O)c2ccccc2F)C[C@@H]1C,-2,-2
CO[C@@H]1CN(C)C(=O)c2cc(NC(=O)C3CCC3)ccc2OC[C@H](C)N(CC2CCCCC2)C[C@H]1C,-13,-32
N#C[C@@H]1[C@H](c2ccc(C#CC3CCCCC3)cc2)[C@H](CO)N1S(=O)(=O)c1ccccc1,-14,-18
COc1ccccc1NC(=O)N[C@@H]1CC[C@H](CCNS(=O)(=O)c2ccc(Cl)cc2)O[C@@H]1CO,-13,-14
COC(=O)[C@H]1[C@@H]2COc3ccccc3[C@H]2N[C@H]1C(=O)OC,7,9
CCCNC(=O)N1CC(=O)N2[C@H](CO)[C@@H](c3ccc(C#Cc4cccc(F)c4)cc3)[C@@H]2C1,-27,-31
C[C@H]1CN([C@@H](C)CO)C(=O)c2cc(Br)cnc2O[C@H]1CN(C)S(=O)(=O)c1ccccc1,21,20
CNC[C@H]1Oc2cc(-c3ccc(C)cc3)ccc2S(=O)(=O)N([C@H](C)CO)C[C@@H]1C,-14,-21
C[C@H]1CN([C@@H](C)CO)C(=O)c2cc(C#Cc3ccncc3)cnc2O[C@@H]1CN(C)CC1CCCC1,3,1
C[C@H](CO)N1C[C@H](C)[C@H](CN(C)S(=O)(=O)c2ccc(F)cc2)Oc2ccc(NC(=O)Cc3ccccc3)cc2C1=O,-1,-5
O=C(C[C@H]1CC[C@@H]2[C@H](COC[C@H](O)CN2C(=O)c2ccccc2F)O1)NCc1ccc(F)cc1,13,18
CO[C@@H]1CN(C)C(=O)c2ccc(NS(=O)(=O)c3cn(C)cn3)cc2OC[C@H](C)N(C)C[C@H]1C,8,20
C[C@H]1CCCCO[C@H](CN(C)S(=O)(=O)c2cccs2)[C@@H](C)CN([C@@H](C)CO)C(=O)c2cc(NS(=O)(=O)c3ccccc3)ccc2O1,-22,-33
Cc1noc(C)c1NC(=O)Nc1ccc2c(c1)C(=O)N([C@@H](C)CO)C[C@H](C)[C@H](CN(C)S(=O)(=O)c1ccc(Cl)cc1)O2,14,12
C[C@H]1CN([C@@H](C)CO)C(=O)c2cc(NC(=O)C3CC3)ccc2O[C@@H]1CN(C)C(=O)Nc1ccc2c(c1)OCO2,19,23
COc1ccccc1-c1cnc2c(c1)C(=O)N([C@@H](C)CO)C[C@H](C)[C@H](CN(C)Cc1cccnc1)O2,-4,-2
CCCNC(=O)N1C[C@@H](C)[C@H](OC)CN(C)C(=O)c2ccc(NC(=O)CC)cc2OC[C@H]1C,-8,-2
CC(C)NC(=O)Nc1ccc2c(c1)CC(=O)N([C@@H](C)CO)C[C@H](C)[C@H](CN(C)CC1CC1)O2,9,13
Cc1ccc(S(=O)(=O)Nc2ccc3c(c2)C(=O)N([C@@H](C)CO)C[C@@H](C)[C@@H](CN(C)C(=O)Nc2ccc(C(F)(F)F)cc2)O3)cc1,-6,-15
O=C1CN(Cc2ccc(F)cc2)C[C@@H]2[C@H](c3ccc(Br)cc3)[C@H](CO)N12,17,17
C[C@H](CO)N1C[C@H](C)[C@H](CN(C)S(=O)(=O)c2ccccc2)OCCCC[C@H](C)Oc2ccc(NS(=O)(=O)c3cn(C)cn3)cc2C1=O,2,6
Cc1ccc(S(=O)(=O)N[C@@H]2CC[C@@H](CCn3cc(C4CCCCC4)nn3)O[C@H]2CO)cc1,2,1
O=C(Nc1cccc(F)c1)N1CC(=O)N2[C@H](CO)[C@H](c3ccc(Br)cc3)[C@@H]2C1,-21,-7
CCS(=O)(=O)Nc1ccc2c(c1)C(=O)N(C)C[C@@H](OC)[C@@H](C)CN(C(=O)c1ccc3c(c1)OCO3)[C@@H](C)CO2,13,14
CCCNC(=O)Nc1ccc2c(c1)OC[C@@H](C)N(C)C[C@H](C)[C@@H](OC)CN(C)C2=O,-2,0
COc1ccc(NC(=O)Nc2cccc3c2O[C@@H](CN(C)S(=O)(=O)c2ccc(OC)cc2)[C@@H](C)CN([C@@H](C)CO)C3=O)cc1,-15,-20
CCCC#Cc1ccc([C@H]2[C@@H](CO)N3CCCCN(C(=O)Cc4ccccn4)C[C@@H]23)cc1,8,3
Cc1ccccc1-c1ccc2c(c1)O[C@@H](CN(C)C)[C@@H](C)CN([C@H](C)CO)S2(=O)=O,0,-4
CNC[C@@H]1Oc2ccc(N)cc2C(=O)N([C@@H](C)CO)C[C@H]1C,-13,-13
C[C@H]1CN([C@@H](C)CO)C(=O)Cc2cc(NS(=O)(=O)c3ccc(F)cc3)ccc2O[C@@H]1CN(C)S(=O)(=O)c1cccs1,2,1
C[C@@H]1CN([C@H](C)CO)C(=O)Cc2cc(NC(=O)C3CCCCC3)ccc2O[C@H]1CN(C)C(=O)Nc1ccc(C(F)(F)F)cc1,1,-5
C[C@H](CO)N1C[C@H](C)[C@@H](CN(C)C(=O)Nc2ccccc2)Oc2ccc(NS(=O)(=O)c3cccs3)cc2CC1=O,14,19
CCCNC(=O)N1CC2(CN(Cc3ccncc3)C2)c2c(n(C)c3cc(OC)ccc23)[C@@H]1CO,11,11
O=C(Nc1ccccc1F)N[C@@H]1CC[C@@H](CCNC(=O)C2CC2)O[C@H]1CO,-3,-3
O=C(c1ccncc1)N1C[C@H]2[C@@H](c3ccccc31)[C@H](CO)N2C(=O)CN1CCOCC1,5,14
COc1ccc(NC(=O)Nc2ccc3c(c2)C(=O)N([C@@H](C)CO)C[C@@H](C)[C@H](CN(C)C(=O)Nc2c(C)noc2C)O3)cc1,-2,6
C[C@H](CO)N1C[C@H](C)[C@@H](CN(C)C(=O)Nc2cccc3ccccc23)Oc2ccc(NC(=O)C3CC3)cc2C1=O,15,10
Cc1ccc(S(=O)(=O)N[C@H]2C=C[C@H](CC(=O)NC3CCCCC3)O[C@@H]2CO)cc1,0,-5
Cc1noc(C)c1NC(=O)Nc1ccc2c(c1)C(=O)N(C)[C@H]1CC[C@H](CC(=O)NCc3ccc(Cl)cc3)O[C@@H]1CO2,-9,-7
C[C@H](CO)N1C[C@H](C)[C@H](CN(C)Cc2ccncc2)Oc2ccc(NC(=O)Cc3cn(C)c4ccccc34)cc2CC1=O,4,1
COc1ccc([Si](C)(C)[C@H]2[C@H](CCn3cc([C@H](O)c4ccccc4)nn3)O[C@@]3(C(=O)N(C)c4ccccc43)[C@@H]2C)cc1,-13,-13

# Only part of the results is shown. The share of hits here may be higher or lower than overall.
